Compound activity deposited in PubChem by several laboratories.
RGS16-Gao HTS: RGS16-Galphao interaction regulator (human) | O15492+P09471 | bead-based flow cytometry RGS16-Galphao binding, fluorescence; actives lie on both sides | binding response (% of control), % at 10 µM | hit rate 0.38% among 220,000;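 active = below 25% or above 175%, edge rows of some plates excepted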;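 also: Galphao activated by GDP with aluminum fluoride before binding; 100% = wells without compound and 0% = beads without RGS; some results beyond the cut were filed as inactive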
Target sequence (O15492 whole entry, looked up): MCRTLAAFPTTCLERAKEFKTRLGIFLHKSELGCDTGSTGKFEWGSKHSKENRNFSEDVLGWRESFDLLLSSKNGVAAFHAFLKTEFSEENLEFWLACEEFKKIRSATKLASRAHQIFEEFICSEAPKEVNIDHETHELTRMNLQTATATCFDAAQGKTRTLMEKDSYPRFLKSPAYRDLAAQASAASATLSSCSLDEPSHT
Target sequence (P09471 whole entry, looked up): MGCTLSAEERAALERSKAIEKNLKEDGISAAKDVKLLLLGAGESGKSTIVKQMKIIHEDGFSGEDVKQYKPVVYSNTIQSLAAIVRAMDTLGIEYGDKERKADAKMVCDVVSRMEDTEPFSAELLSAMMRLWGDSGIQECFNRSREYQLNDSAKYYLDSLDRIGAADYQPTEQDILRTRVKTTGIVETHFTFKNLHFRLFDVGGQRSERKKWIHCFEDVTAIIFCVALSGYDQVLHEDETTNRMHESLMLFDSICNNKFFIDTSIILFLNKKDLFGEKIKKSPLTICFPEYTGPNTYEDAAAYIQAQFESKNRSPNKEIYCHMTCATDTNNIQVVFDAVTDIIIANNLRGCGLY
INS promoter inh: TRM-6 insulin promoter activity inhibition. hit rate 0.9% among 130,000. inhibition, % at 2 µM. TRM-6 cells (human fetal islet line), insulin promoter-eGFP reporter, imaging; reporter expression induced with tamoxifen;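 active = inhibition above the mean plus 3 SD, with well images judged a real hit on visual review, cut at about 60% in these data, passing the limit was not always enough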
PKD1 inh: PKD1 (human) kinase inhibition; Q15139; PKD1 kinase fluorescence polarization assay; inhibition, %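 (about 10 µM by stock and volumes)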; hit rate 0.056% among 200,000; AID 797;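 active = inhibition of 50% or more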;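 also: controls were vehicle for no effect and a reference inhibitor for full effect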
HSV augment: HSV replication enhancement; hit rate 0.005% among 220,000; HSV replication augmentation in cells, fold increase; AID 1956; maximum fold increase;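 active = peak rise of 1.5-fold or more in the series; tested in PC3 cells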;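 also: first round at 10 µM; read as green reporter fluorescence; hits show the peak of a series up to 25 µM; 1 = signal of infected wells without compound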
GALR2 ag: agonists of human galanin receptor 2 (GALR2); O43603; AID 803; activation, %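 (tested at 5 µM)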; hit rate 0.48% among 140,000; GALR2-expressing cells, agonist activation read-out;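 active = above mean plus 3 SD of all compounds, about 5% in these data, not always enough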;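 also: 0% = vehicle buffer wells and 100% = reference agonist at full effect; tested in CHO reporter cells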
Target sequence (O43603 whole entry, looked up): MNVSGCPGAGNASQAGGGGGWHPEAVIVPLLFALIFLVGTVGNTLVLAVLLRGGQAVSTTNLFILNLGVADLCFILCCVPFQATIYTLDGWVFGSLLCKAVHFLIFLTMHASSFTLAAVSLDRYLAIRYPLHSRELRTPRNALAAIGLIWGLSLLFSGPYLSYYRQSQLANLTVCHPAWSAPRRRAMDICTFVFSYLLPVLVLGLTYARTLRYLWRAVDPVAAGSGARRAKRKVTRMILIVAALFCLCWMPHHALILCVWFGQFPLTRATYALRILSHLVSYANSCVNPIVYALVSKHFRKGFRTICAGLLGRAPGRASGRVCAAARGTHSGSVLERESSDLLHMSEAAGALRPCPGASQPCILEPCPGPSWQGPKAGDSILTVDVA
INS promoter inh cell count: also measured in INS promoter inh; calls as there; normalized cell count, %; measured here: cell count, toxicity; reference of the scale not given here;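 cells exposed to compound for 48 h; stained nuclei by imaging scaled within each plate; lower means fewer cells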
HSV augment primary fold: further read-out of HSV augment, marked with its call; fold increase; compound at 10 µM; measured here: primary screen fold increase 10 uM; tested in PC3 cells;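 GFP signal in the first replicate; 1 = infected wells without compound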
* hit, by the source's call.

Results for CCCn1c(C)cc(C(=O)COC(=O)CN=C2NS(=O)(=O)c3ccccc32)c1C ?
RGS16-Gao HTS: 115; INS promoter inh: 21; PKD1 inh: -11; HSV augment: inactive; GALR2 ag: -1.5; INS promoter inh cell count: 112; HSV augment primary fold: 0.99

What do the screens show for `Cc1cc(=O)oc2cc(OCC(=O)Nc3ccc(S(=O)(=O)N(C)C)cc3)ccc12`?
RGS16-Gao HTS: 103; HSV augment: inactive; HSV augment primary fold: 0.85

Results for O=C(/C=C/c1ccco1)NC(=S)Nc1ccccn1 ?
RGS16-Gao HTS: 93; INS promoter inh: 31; PKD1 inh: 0; HSV augment: inactive; GALR2 ag: -2.4; INS promoter inh cell count: 145; HSV augment primary fold: 0.97

How did Cc1onc(-c2ccccc2)c1-c1ccnn1S(=O)(=O)c1ccc(Cl)cc1 do in these assays?
RGS16-Gao HTS: 93; HSV augment: inactive; HSV augment primary fold: 1.1

Results for Cc1ccc(NC(=O)NNc2cccc(Cl)n2)cc1 ?
RGS16-Gao HTS: 101; INS promoter inh: -8; PKD1 inh: -5; HSV augment: inactive; GALR2 ag: -3.0; INS promoter inh cell count: 171; HSV augment primary fold: 0.91

How did Cc1onc(-c2ccccc2)c1C(=O)NC(=S)NNC(=O)c1cc(-c2ccc(F)cc2)n[nH]1 do in these assays?
RGS16-Gao HTS: 103; HSV augment: inactive; HSV augment primary fold: 0.72

Results for COc1nccnc1NS(=O)(=O)c1ccc(N/C=C2\CCCCC2=O)cc1 ?
RGS16-Gao HTS: 103; PKD1 inh: -2; HSV augment: inactive; HSV augment primary fold: 0.9

What do the screens show for `CNC(=S)N1CCC(NC(=O)C23CC4CC(CC(C4)C2)C3)CC1`?
RGS16-Gao HTS: 113; INS promoter inh: -36; PKD1 inh: -6; HSV augment: inactive; INS promoter inh cell count: 98; HSV augment primary fold: 0.99

What do the screens show for `COCCn1c(SCC(=O)Nc2cc(C(C)(C)C)nn2-c2ccccc2)nc2ccccc2c1=O`?
RGS16-Gao HTS: 105; INS promoter inh: -10; PKD1 inh: 1; HSV augment: inactive; GALR2 ag: -0.1; INS promoter inh cell count: 100; HSV augment primary fold: 0.9

Results for Cc1ccc(/C=N/NC(=O)c2ccc(Br)o2)s1 ?
RGS16-Gao HTS: 103; INS promoter inh: -27; PKD1 inh: -4; HSV augment: inactive; GALR2 ag: -1.9; INS promoter inh cell count: 96; HSV augment primary fold: 0.86

How did CN(C)CCCN1C(=O)c2oc3ccc(Cl)cc3c(=O)c2C1c1cccnc1 (configuration not stated) do in these assays?
RGS16-Gao HTS: 101; PKD1 inh: -10; HSV augment: inactive; GALR2 ag: -0.4; HSV augment primary fold: 0.95

What do the screens show for `O=C(Nn1c(-c2ccccc2)nc2ccccc2c1=O)c1cccs1`?
RGS16-Gao HTS: 112; INS promoter inh: 20; PKD1 inh: -8; HSV augment: inactive; GALR2 ag: -0.7; INS promoter inh cell count: 62; HSV augment primary fold: 1.1

Results for O=C(N/C=C/n1cnc2cc(C(F)(F)F)ccc21)c1ccccc1F ?
RGS16-Gao HTS: 97; PKD1 inh: -1; HSV augment: inactive; HSV augment primary fold: 1

Results for N#CC1C=Cc2ccccc2N1C(=O)c1ccccc1 (configuration not stated) ?
RGS16-Gao HTS: 100; HSV augment: inactive; HSV augment primary fold: 0.84

How did Cc1c(CCOC(=O)C23CC4CC(CC(C4)C2)C3)sc[n+]1CC#N do in these assays?
RGS16-Gao HTS: 96; INS promoter inh: 14; PKD1 inh: -9; HSV augment: inactive; INS promoter inh cell count: 96; HSV augment primary fold: 0.9

What do the screens show for `CN(CC(=O)Nc1ccc(OC(F)(F)F)cc1)C1CCCCC1`?
RGS16-Gao HTS: 113; INS promoter inh: 5; PKD1 inh: -4; HSV augment: inactive; INS promoter inh cell count: 207; HSV augment primary fold: 0.9

What do the screens show for `Cc1sc2nc(CN3CCCC3)nc(NCc3ccncc3)c2c1C`?
RGS16-Gao HTS: 102; PKD1 inh: -2; HSV augment: inactive; HSV augment primary fold: 1.1

How did Cc1ccc(S(=O)(=O)N2CCN(C3CCC(c4ccccc4)CC3)CC2)cc1 (configuration not stated) do in these assays?
RGS16-Gao HTS: 104; PKD1 inh: -16; GALR2 ag: -1.7

Results for CC(=O)c1ccc(NC(=O)Nc2cccc(Cl)c2)cc1 ?
RGS16-Gao HTS: 107; INS promoter inh: -17; PKD1 inh: -1; HSV augment: inactive; GALR2 ag: -0.6; INS promoter inh cell count: 110; HSV augment primary fold: 0.93

Results for O=c1cc(Nc2ccc3c(c2)OCCO3)[nH]c(=O)n1-c1ccc(Br)cc1 ?
RGS16-Gao HTS: 47; INS promoter inh: 10; PKD1 inh: -1; HSV augment: inactive; GALR2 ag: -0.6; INS promoter inh cell count: 135; HSV augment primary fold: 0.94

Five compounds out of the list, sorted by molar mass, ascending:
What do the screens show for `CN(CC(=O)Nc1ccc(OC(F)(F)F)cc1)C1CCCCC1`?
RGS16-Gao HTS: 113; INS promoter inh: 5; PKD1 inh: -4; HSV augment: inactive; INS promoter inh cell count: 207; HSV augment primary fold: 0.9

What do the screens show for `O=C(Nn1c(-c2ccccc2)nc2ccccc2c1=O)c1cccs1`?
RGS16-Gao HTS: 112; INS promoter inh: 20; PKD1 inh: -8; HSV augment: inactive; GALR2 ag: -0.7; INS promoter inh cell count: 62; HSV augment primary fold: 1.1

How did CN(C)CCCN1C(=O)c2oc3ccc(Cl)cc3c(=O)c2C1c1cccnc1 (configuration not stated) do in these assays?
RGS16-Gao HTS: 101; PKD1 inh: -10; HSV augment: inactive; GALR2 ag: -0.4; HSV augment primary fold: 0.95

Results for O=c1cc(Nc2ccc3c(c2)OCCO3)[nH]c(=O)n1-c1ccc(Br)cc1 ?
RGS16-Gao HTS: 47; INS promoter inh: 10; PKD1 inh: -1; HSV augment: inactive; GALR2 ag: -0.6; INS promoter inh cell count: 135; HSV augment primary fold: 0.94

How did Cc1onc(-c2ccccc2)c1C(=O)NC(=S)NNC(=O)c1cc(-c2ccc(F)cc2)n[nH]1 do in these assays?
RGS16-Gao HTS: 103; HSV augment: inactive; HSV augment primary fold: 0.72

Further structures:
How did COc1cc(C(C#N)N2N=C(c3ccccc3)CC2c2ccccc2)ccc1O (configuration not stated) do in these assays?
RGS16-Gao HTS: 104; INS promoter inh: 27; PKD1 inh: -14; HSV augment: inactive; GALR2 ag: -0.4; INS promoter inh cell count: 73; HSV augment primary fold: 1.3

What do the screens show for `COC(=O)C1C(O)=C(C=Nc2ccccc2)C(=O)CC1(C)C` (configuration not stated)?
RGS16-Gao HTS: 94; PKD1 inh: 0; HSV augment: inactive; HSV augment primary fold: 0.91

Results for CN(C)CCNC(=S)Nc1ccc(F)c(F)c1F ?
RGS16-Gao HTS: 99; INS promoter inh: 47; PKD1 inh: -4; HSV augment: inactive; INS promoter inh cell count: 90; HSV augment primary fold: 1.1

Results for Cc1onc(-c2c(Cl)cccc2Cl)c1NC(=O)NNc1c(Cl)cncc1Cl ?
RGS16-Gao HTS: 99; HSV augment: inactive; HSV augment primary fold: 0.93

Results for CCOC(=O)c1cc2c(c(CSc3nc4ccccc4c(=O)n3Cc3ccco3)c1)OCOC2 ?
RGS16-Gao HTS: 102; INS promoter inh: -14; PKD1 inh: 2; HSV augment: inactive; GALR2 ag: -1.6; INS promoter inh cell count: 81; HSV augment primary fold: 0.89

How did CCOc1cc([N+](=O)[O-])cc(/C=C2/NC(=O)N(Cc3ccccc3F)C2=O)c1O do in these assays?
RGS16-Gao HTS: 106; PKD1 inh: -2; HSV augment: inactive; HSV augment primary fold: 1

Results for CCc1ccc(S(=O)(=O)NCCc2csc(-c3ccccc3)n2)s1 ?
RGS16-Gao HTS: 103; INS promoter inh: -160; PKD1 inh: -16; HSV augment: inactive; GALR2 ag: -2.3; INS promoter inh cell count: 66; HSV augment primary fold: 0.95

How did Cc1ccc(C(=O)CCC(=O)Nc2cccc(C(F)(F)F)c2)cc1 do in these assays?
RGS16-Gao HTS: 97; INS promoter inh: 7; PKD1 inh: 10; HSV augment: inactive; GALR2 ag: -0.7; INS promoter inh cell count: 114; HSV augment primary fold: 0.92

Results for O=C(NC(=S)Nc1ccc(F)cc1)c1ccc2c(c1)OCCO2 ?
RGS16-Gao HTS: 99; INS promoter inh: -29; PKD1 inh: 7; HSV augment: inactive; INS promoter inh cell count: 81; HSV augment primary fold: 0.96

How did COC(=O)CCc1nc2cc(Cl)ccc2n(Cc2ccccc2)c1=O do in these assays?
RGS16-Gao HTS: 112; PKD1 inh: -9; HSV augment: inactive; HSV augment primary fold: 0.69

What do the screens show for `Cc1ccc(/C=N/Nc2nc(N3CCCCC3)nc(N3CCCCC3)n2)o1`?
RGS16-Gao HTS: 103; INS promoter inh: -33; PKD1 inh: 2; HSV augment: inactive; INS promoter inh cell count: 116; HSV augment primary fold: 0.9

What do the screens show for `CC1=C(C(=O)OCc2ccccc2)C(c2ccc(N(C)C)cc2)NC(=O)N1` (configuration not stated)?
RGS16-Gao HTS: 106; INS promoter inh: -43; PKD1 inh: 2; HSV augment: inactive; GALR2 ag: -0.2; INS promoter inh cell count: 133; HSV augment primary fold: 1.2

What do the screens show for `Cc1ccc(S(=O)(=O)N(C)C)cc1NC(=O)C(C)Sc1ccccc1` (configuration not stated)?
RGS16-Gao HTS: 108; INS promoter inh: -50; PKD1 inh: 0; HSV augment: inactive; INS promoter inh cell count: 151; HSV augment primary fold: 0.89

What do the screens show for `C[N+]1(CC(=O)OCCCc2ccccc2)CCCC1`?
RGS16-Gao HTS: 69; INS promoter inh: -18; PKD1 inh: 5; HSV augment: inactive; GALR2 ag: -0.6; INS promoter inh cell count: 79; HSV augment primary fold: 1

How did CN(C)/C=N/c1c(C#N)cnn1-c1ccc(C(F)(F)F)cn1 do in these assays?
RGS16-Gao HTS: -122*; PKD1 inh: 0; HSV augment: inactive; GALR2 ag: -1.3; HSV augment primary fold: 1

Results for C=CCn1c(=NC(=O)c2sc3ccccc3c2Cl)sc2cc(S(N)(=O)=O)ccc21 ?
RGS16-Gao HTS: 100; INS promoter inh: -32; PKD1 inh: -12; HSV augment: inactive; GALR2 ag: 1.0; INS promoter inh cell count: 124; HSV augment primary fold: 0.71

Results for CCN1C/C(=C/c2cccc([N+](=O)[O-])c2)C(=O)/C(=C/c2cccc([N+](=O)[O-])c2)C1 ?
RGS16-Gao HTS: 96; INS promoter inh: 100*; PKD1 inh: 0; HSV augment: inactive; GALR2 ag: -2.1; INS promoter inh cell count: 0.0*; HSV augment primary fold: 0.49

What do the screens show for `CC(C)NC(=O)NC1C2CC3CC(C2)CC1C3` (configuration not stated)?
RGS16-Gao HTS: 101; INS promoter inh: 3; PKD1 inh: -12; HSV augment: inactive; GALR2 ag: -2.2; INS promoter inh cell count: 102; HSV augment primary fold: 0.87

How did COC(=O)c1sc(NC(=O)COc2ccc(OC)cc2)nc1C do in these assays?
INS promoter inh: -128; PKD1 inh: -15; HSV augment: inactive; GALR2 ag: -1.5; INS promoter inh cell count: 100; HSV augment primary fold: 1

Results for CC(C)[N+](C)(C)CC(O)CN(c1ccccc1)c1ccccc1 (configuration not stated) ?
RGS16-Gao HTS: 100; INS promoter inh: 0; PKD1 inh: -5; HSV augment: inactive; INS promoter inh cell count: 109; HSV augment primary fold: 1

What do the screens show for `Nc1nonc1NC(=O)CSc1ncccc1C(=O)O`?
RGS16-Gao HTS: 96; INS promoter inh: -14; PKD1 inh: -12; HSV augment: inactive; GALR2 ag: -1.8; INS promoter inh cell count: 151; HSV augment primary fold: 0.93

Results for N#Cc1cc2sc3nc4ccccc4n3c2cc1C#N ?
RGS16-Gao HTS: 97; INS promoter inh: 40; PKD1 inh: -6; HSV augment: inactive; GALR2 ag: -1.3; INS promoter inh cell count: 124; HSV augment primary fold: 1

What do the screens show for `N/C(=N\OC(=O)/C=C/c1ccccc1)c1ccc(Cl)cc1`?
RGS16-Gao HTS: 94; HSV augment: inactive; HSV augment primary fold: 0.99

How did CCOc1ccccc1CNC(=O)c1c([N+](=O)[O-])c(C)nn1C do in these assays?
RGS16-Gao HTS: 87; INS promoter inh: 8; PKD1 inh: -17; HSV augment: inactive; GALR2 ag: -0.1; INS promoter inh cell count: 107; HSV augment primary fold: 0.97

What do the screens show for `COc1ccc(N2CCN(C(=S)Nc3ccc(C)cc3)CC2)cc1`?
RGS16-Gao HTS: 97; PKD1 inh: 4; HSV augment: inactive; HSV augment primary fold: 0.99

What do the screens show for `Cn1c(=O)c2c(nc(CN3CCCCC3)n2CCCc2ccccc2)n(C)c1=O`?
INS promoter inh: 44; PKD1 inh: -6; HSV augment: inactive; GALR2 ag: -1.2; INS promoter inh cell count: 113; HSV augment primary fold: 0.89

How did CC(C)Oc1cccc(C(=O)Nc2ccc(N3CCN(S(C)(=O)=O)CC3)cc2)c1 do in these assays?
RGS16-Gao HTS: 105; INS promoter inh: -7; PKD1 inh: 2; HSV augment: inactive; GALR2 ag: -0.1; INS promoter inh cell count: 118; HSV augment primary fold: 0.89
